Cruzain Triton = blocks cruzain activity in presence of Triton detergent. P25779. purified cruzain, Z-FR-AMC fluorescence, 0.01% Triton. Potency, µM, without a hit: max response, negative = inhibition, usual class: inhibitors. 200,000 compounds, 0.43% hits; active = well fitted curve in the direction sought with a large enough effect; inconclusive = small, poorly fitted or top-dose-only effect, or another doubt; inactive = no such curve, though single readings can be large; an effect the other way counts as inactive or inconclusive;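 also: plate controls were neutral wells for no effect and buffer without enzyme for full effect; nearly all actives have a fitted effect of over 40% in size; top concentration of the series not given in the record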
Target sequence (P25779 123-467 limits assumed): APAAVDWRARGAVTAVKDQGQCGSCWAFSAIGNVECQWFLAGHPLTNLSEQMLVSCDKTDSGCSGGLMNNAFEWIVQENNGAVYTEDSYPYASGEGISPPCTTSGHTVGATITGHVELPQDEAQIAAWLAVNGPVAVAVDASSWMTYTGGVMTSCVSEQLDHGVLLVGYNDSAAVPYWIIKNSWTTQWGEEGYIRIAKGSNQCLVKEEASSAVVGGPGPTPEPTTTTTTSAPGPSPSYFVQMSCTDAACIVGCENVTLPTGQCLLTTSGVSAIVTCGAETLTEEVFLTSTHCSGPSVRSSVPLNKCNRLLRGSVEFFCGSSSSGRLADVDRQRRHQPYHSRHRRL
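Cruzain (1.5 nM) preincubated 15 min at RT with compound in 100 mM sodium acetate pH 5.5, 5 mM DTT, 0.01% Triton X-100. Reaction started with 2 uM Z-FR-AMC; AMC fluorescence (ex 360/em 450 nm) change over 60 s gave rate.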
2A StopGo = FMDV 2A StopGo reporter, luciferase signal; Potency, µM (highest dose often 57.9 µM), inactives show at the highest dose signal change, negative = less light; human cells with a luciferase reporter of 2A StopGo recoding; control for the full effect not named in the record; AID 1159524; 410,000 compounds, 1.2% hits; active = well fitted falling curve with a large enough effect; inconclusive = small, poorly fitted or top-dose-only effect; inactive = no such curve, though single readings can be large or run the other way; tested in HEK293T cells; also: % is scaled to controls: 0 for no effect and ±100 for the full control effect; nearly all actives have a fitted effect of over 45% in size; luciferase light after 4 h
Cruzain inh noDet = cruzain (T. cruzi) inhibition without detergent. P25779. purified cruzain, Z-FR-AMC fluorescence, no detergent. Potency, µM, for inactives: max response, negative = inhibition, usual class: inhibitors. 200,000 compounds, 2.3% hits. AID 1476; active = well fitted curve in the direction sought with a large enough effect; inconclusive = small, poorly fitted or top-dose-only effect, or another doubt; inactive = no such curve, though single readings can be large; an effect the other way counts as inactive or inconclusive;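 also: plate controls were enzyme without inhibitor for no effect and buffer without enzyme for full effect; nearly all actives have a fitted effect of over 40% in size; top concentration of the series not given in the record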
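Purified cruzain at 1.5 nM, pre-incubated 15 min with compound at room temperature in 100 mM sodium acetate pH 5.5, 5 mM DTT, 0.00005% Triton X-100. Reaction started with 2 uM Z-FR-AMC; AMC fluorescence increase over 60 s gives rate.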
Lassa entry inh = Lassa virus entry inhibition. Lassa virus pseudotype entry inhibition, cell reporter; control for the full effect not named in the record. Potency, µM (series often up to 37.9 µM), inactives show at the highest dose activity change, negative = inhibition, hits mostly inhibitors. 300,000 compounds, 1.2% hits. AID 540256; active means well fitted inhibition curve with a large enough effect; inconclusive means small, poorly fitted or top-dose-only effect, or effect the other way; inactive means flat fitted curve, though single readings scatter; tested in HEK293 cells; also: % is scaled to controls: 0 for no effect and ±100 for the full control effect; nearly all actives have a fitted effect of over 50% in size; luciferase read-out
SARS PLpro yeast = inhibitors of SARS-CoV papain-like protease in yeast; 330,000 compounds, 0.19% hits; Potency, µM (highest dose often 32.9 µM), without a hit: at the top dose activity, positive = growth rescue; S. cerevisiae expressing SARS-CoV PLpro, growth rescue; control for the full effect not named in the record; also: 0% is about no effect; nearly all actives have a fitted effect of over 55% in size; growth read by luminescence after 48 h
NS1 function inh = inhibitors of influenza NS1 protein function. S. cerevisiae slowed by influenza A NS1, growth recovery by OD600. Potency, µM (highest dose often 46.1 µM), inactives show at the highest dose activity, positive = more growth. 270,000 compounds, 0.4% hits; also: actives are rising curves; nearly all actives have a fitted effect of over 50% in size
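Recovery from NS1-induced slow growth read by OD600 in budding yeast switched to galactose assay medium (pH 6.0, -URA) at 1:100 dilution. Compound 23 nl per well; the matching strain lacking NS1 serves as control.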
MARV entry inh = Marburg virus entry inhibition | Marburg virus pseudotyped entry inhibition, cell reporter; control for the full effect not named in the record; about a third of the inactives were read at about 46 µM | Potency, µM (top dose mostly 37.8 µM), for the others: at the highest dose activity change, negative = inhibition, actives largely listed as inhibitors | 300,000 compounds, 1.8% hits; active = well fitted inhibition curve with a large enough effect; inconclusive = small, poorly fitted or top-dose-only effect, or effect the other way; inactive = flat fitted curve, though single readings scatter; tested in HEK293 cells; about a fifth of its hits are not listed in these tables; also: % is scaled to controls: 0 for no effect and ±100 for the full control effect; luciferase read-out
RE007 growth inh = less growth of the S. pombe RE007 Vpr strain; 360,000 compounds, 0.21% hits; Potency, µM (highest dose often 92.2 µM), without a hit: top-dose activity change, negative = less growth; S. pombe RE007 Vpr strain, BacTiter-Glo ATP luminescence, 24 h; control for the full effect not named in the record; active = well fitted falling curve with a large enough effect; inconclusive = small, poorly fitted or top-dose-only effect; inactive = no such curve, though single readings can be large or run the other way;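 also: % is scaled to controls: 0 for no effect and ±100 for the full control effect; nearly all actives have a fitted effect of over 50% in size; the assay follows cell death caused by Vpr and the record does not say whether a fall means rescue or toxicity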
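Fission yeast RE007 carrying one integrated HIV-1 vpr copy, seeded at OD 0.01 in PMG+AL medium with 23 nL pinned compound. Grown 24 h at 30 degrees; viability read by BacTiter-Glo luminescence after 5 min.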
An asterisk follows results filed as active; ? = inconclusive; nt = no result given; & = joins results of further samples; ! = not active in a repeat; [ ] = remark or other dose. Unless noted, calls follow the shape of the dose curve; as a rule, active means well fitted rising curve with a large enough effect; inconclusive means small, poorly fitted or top-dose-only effect; inactive means no such curve, though single readings can be large or run the other way. Potency is read from the fitted curve at half-maximal effect.

SMILES	Cruzain Triton	2A StopGo	Cruzain inh noDet	Lassa entry inh	SARS PLpro yeast	NS1 function inh	MARV entry inh	RE007 growth inh
CCc1ccc(N(CC(=O)N2CCCCCC2)S(C)(=O)=O)cc1	nt	-9%	nt	1%[46.1 µM]	-4%	1%	23%[46.1 µM]	20%
Cc1ncc(CO)c(/C=N/NC(=O)c2ccoc2C)c1O	nt	19%	nt	-22%	2%	nt	?	-1%
Cc1cnc(NC(=O)Cc2ccc(S(=O)(=O)N3CCOCC3)s2)s1	nt	45%[activator]	nt	6%	-1%	nt	30%	7%
COc1cc(Cl)c(C)cc1NC(=O)c1cc(S(=O)(=O)N2CCCC2)ccc1F	0.7%	-5%	-12%	17%[46.1 µM]	nt	nt	nt	nt
CCOC(=O)c1cn2nc(Oc3cccc(C(F)(F)F)c3)ccc2n1	nt	0%	nt	-10%	-1%	8%	-4%[46.1 µM]	-7%
Cc1ccc(C(=O)OCc2ccc3c(c2)OCO3)cc1S(=O)(=O)N1CCCCC1	3.9%	?	2%	?	-8%	?	?	-6%
CN1C(C(=O)Nc2ccc(OC(F)(F)F)cc2)=CC(c2ccco2)=NS1(=O)=O	nt	-1%	nt	-28%[46.1 µM]	-7%	6%	?	1%
COc1ccc(N2CCN(C(=O)NC(=O)c3ccccc3)CC2)cc1	nt	-7%	nt	-7%[46.1 µM]	-3%	-6%	19%[46.1 µM]	15%
CC(NC(=O)OCc1ccccc1)C(=O)NCC(=O)NC(Cc1ccc(OC(C)(C)C)cc1)C(=O)OC(C)(C)C (stereo unspecified)	-2.2%	-9%	?	?	-10%	-10%	?	-6%
COc1ccc(OC)c(-n2c(SC)nnc2-c2c[nH]c3ccccc23)c1	-4.0%	-21%	-8%	nt	3%	3%	nt	9%
O=C(CCN1CCCCC1)NCC1OCCc2ccccc21 (stereo unspecified)	2.0%	20%	10%	-3%	-1%	5%	-5%	9%
COc1ccc(CCn2nnnc2C(C(C)C)N2CCN(c3ncccn3)CC2)cc1OC (stereo unspecified)	-1.2%	-13%	?	3%	6%	-23%	?	4%
COc1ccc(/C=N/NC(=O)c2cc3cc(OC)c(OC)cc3[nH]2)cc1	nt	0%	nt	nt	1%	-1%	nt	8%
CCc1ccc(Nc2nnc(SCC(=O)N(C)CC(=O)Nc3ccccc3CC)s2)cc1	-9.3%	-1%	?	?	8%	17%	?	14%
CCOC(=O)N1CCC(N(CCCOC)C(=O)Nc2cccc(OC)c2)CC1	4.5%	-1%	10%	2%	3%	-16%	1%	1%
COc1ccc(C(F)(F)F)cc1N/C=C\c1nnnn1-c1ccccc1	-4.8%	-18%	-12%	4%	2%	-11%	-4%	9%
CCOC(=O)N1CCN(C(=O)C2CCN(Cc3nc(-c4ccccc4C)oc3C)CC2)CC1	4.2%	?	5%	nt	1%	6%	10%	-5%
O=C(CN(C(=O)c1csnn1)c1ccccc1Cl)NC1CCCC1	nt	15%	nt	5%	-1%	9%	9%[46.1 µM]	-3%
Cc1ccnc(NS(=O)(=O)c2ccc(NC(=O)C34CC5CC(C)(CC(C)(C5)C3)C4)cc2)n1	-2.4%	-5%	?	-14%	6%	1%	-3%	14%
O=C(O)Cc1c(-c2ccccc2)c2cc(Br)ccc2[nH]c1=O	nt	-26%	nt	17%[46.1 µM]	-1%	9%	0%[46.1 µM]	-7%
CN=c1scc(-c2ccccc2F)n1/N=C/c1ccc(O)c(O)c1O	nt	3.5µM*	nt	?	-16%	nt	?	?
COc1ccc(CN(C(=O)c2cc(=O)c3ccccc3o2)C2CCS(=O)(=O)C2)cc1 (stereo unspecified)	nt	-12%	nt	nt	-5%	-4%	nt	-3%
O=C(NCc1ccccn1)C(=O)NCC1OCCN1C(=O)c1ccc(Cl)cc1 (stereo unspecified)	nt	1%	nt	?	nt	nt	2%	4%
COc1ccc(/C=N/Nc2ccccc2)cc1Cn1nc(C)c([N+](=O)[O-])c1C	3.4%	0%	13µM*	-16%	-4%	6%	-10%	201%
O=C(Nn1cnnc1)C1Cc2ccccc2CN1S(=O)(=O)c1ccc(F)cc1 (stereo unspecified)	2.2%	9%	-2%	1%	2%	9%	-21%	-1%
O=C(COc1ccc2c(-c3ccccc3)cc(=O)oc2c1)NC(Cc1c[nH]c2ccccc12)C(=O)O (stereo unspecified)	nt	5%	nt	3%	-6%	nt	?	-6%
Cc1cccc(-n2c(SCC(N)=O)nc3c(oc4ccccc43)c2=O)c1	-0.3%	0%	-3%	nt	nt	nt	-1%[46.1 µM]	nt
CCC1CCCCN1CCCNC(=O)c1c(O)nc2cc(C)ccn2c1=O (stereo unspecified)	-3.7%	6%&-1%	1%	nt	4%	-12%	-2%[46.1 µM]	-4%
COCCNC(=O)c1nn(-c2ccc(C)cc2)c(=O)n(C)c1=O	-5.1%	3%	-6%	?	nt	nt	nt	nt
CCCCn1c(=N)n(CC(O)COc2ccccc2)c2ccccc21 (stereo unspecified)	1.5%	?	3%	?	4%	-1%	?	-6%
O=C(O)COc1ccccc1/C=N/NC(=O)CSc1nc2ccccc2n1Cc1ccc(Cl)cc1	nt	6%	nt	nt	2%	15%	nt	17%
CN(C(=O)c1ccccc1-c1ccccc1C(=O)O)c1ccccc1	nt	3%	nt	25%[46.1 µM]	2%	-6%	0%[46.1 µM]	3%
CC(Oc1ccc(Br)cc1)C(=O)N(C)CC(=O)Nc1ccc(N2CCOCC2)cc1 (stereo unspecified)	nt	-13%	nt	2%	-3%	nt	-1%	5%
CCN(CC)CCN(C(=O)c1ccc2c(c1)OCCO2)c1nc2cc(C)cc(C)c2s1	nt	?	nt	-26%	-5%	-3%	?	-5%
Cc1ccccc1C(=O)NNC(=O)CSc1nc2ccccc2c(=O)[nH]1	nt	-1%	nt	16%	0%	-1%	12%[46.1 µM]	24%
COc1cccc(-c2nnc3n2N=C(C(C)(C)C)CS3)c1	0.5%	-17%	-1%	-13%	3%	-96%	-12%	-13%
COC(=O)c1c(C)n(-c2ccc(C)cc2)c2ccc(O)cc12	-9.7%	?	-4%	?	-2%	2%	?	13%
CCCCOc1ccc(/C=C(\C#N)C(=O)NC2CC2)cc1	nt	46%[activator]	nt	-28%	nt	nt	9%[46.1 µM]	8%
Cc1ccc(C(NC(=O)N2CCOCC2)C(Cl)(Cl)Cl)cc1F (stereo unspecified)	-1.7%	0%	3%	0%	25%	-4%	0%	-4%
O=C1C(SCCO)=C(SCCO)C(=O)c2ccccc21	?	10µM*	25µM*!	2.6µM*	nt	-36%	4µM*	-16%
O=C1NC(=O)C(=Cc2ccsc2)C(=O)N1	nt	-7%	nt	13%[46.1 µM]	0%	4%	?	2%
O=C(CN1c2ccccc2S(=O)(=O)c2ccccc21)Nc1cccc(C(F)(F)F)c1	-13%	?	?	21%[46.1 µM]	nt	nt	nt	nt
COc1c2ccoc2nc2c(OC)c(O)ccc12	nt	3%	nt	nt	-2%	-7%	nt	5%
CCN1CCN(c2ccc(S(=O)(=O)N3CCCCC3)cc2NC(=O)c2sccc2C)CC1	nt	4%	nt	-22%	3%	nt	?	-14%
CC(=O)N1CCOc2cc(S(=O)(=O)NCc3ccccc3Cl)c(C)cc21	-0.9%	80%[activator]	11%	?	nt	nt	nt	nt
COCCCNCCOc1ccc(C(C)(C)c2ccccc2)cc1	-0.6%	-17%	13%	?	-29%	-16%	16µM*	5%
CC(NC(=O)c1ccccc1)C(=O)OCC(=O)N1c2ccccc2Sc2ccccc21 (stereo unspecified)	?	-19%	-5%	-3%	-3%	22%	19%	21%
CCOc1cc(CNS(=O)(=O)c2cn(C)cn2)cc(OCC)c1OCC	nt	-2%	nt	nt	10%	-3%	nt	-3%
CCOC(=O)Cc1csc(NS(=O)(=O)c2ccccc2)n1	1.5%	-21%	0%	2%	2%	9%	6%	9%
CC(=O)Nc1ccc(NS(=O)(=O)c2cc(-c3n[nH]c(=O)c4ccccc34)ccc2C)cc1	nt	-17%	nt	-7%	0%	22%	-2%[46.1 µM]	3%
COc1ccc(CNS(=O)(=O)c2ccc(N3CCCCS3(=O)=O)cc2)cc1	-0.4%	-25%	6%	-18%[46.1 µM]	nt	nt	nt	nt
CCN(C(=O)c1c(OC)cccc1OC)c1nnc(-c2cccnc2)s1	-1.0%	-10%	7%	2%	1%	-3%	?	-10%
Cc1ccc(/C=C/C(=O)NC(=S)Nc2ccccc2C(=O)NC2CCCCC2)cc1	3.0%	nt	?	?	3%	4%	?	2%
O=C(CSCc1ccccc1Cl)Nc1c[nH]c(=O)[nH]c1=O	1.6%	-10%	21%	-2%	-1%	22%	?	5%
Nc1ccc(-c2nc3ccc(N)cc3s2)cc1	nt	-76%	nt	?	-2%	-43%	11µM*	?
CCN(CC)C(=O)Nc1cnc2ccccc2c1	3.0%	23%	-7%	25%	1%	0%	-25%	-6%
CCCCCSc1cc(O)c(C(CNC)C(C)C)cc1OC (stereo unspecified)	0.5%	-13%	-2%	?	-2%	-4%	18µM*	2%
O=C(O)c1cccc2c1C(=O)c1cc([N+](=O)[O-])ccc1-2	nt	-16%	nt	-40%[46.1 µM]	nt	nt	21%	8%
COC(=O)c1ccccc1NC(=O)CSc1nnc2cc(C)c3cc(C)cc(C)c3n12	-1.8%	-16%	1%	-8%[46.1 µM]	nt	nt	5%[46.1 µM]	nt
COCCN(C(=O)C1CCN(C(=O)c2ccccc2C)CC1)c1c(N)n(CC(C)C)c(=O)[nH]c1=O	nt	-9%	nt	4%	-2%	nt	6%	1%
COc1ccc(-c2cc(C(=O)OC(C)C(=O)c3ccccc3)c3cccc(Cl)c3n2)cc1 (stereo unspecified)	-0.1%	-2%	16%	21%[46.1 µM]	nt	nt	4%[46.1 µM]	nt
CC(=O)NCCC(=O)N1CCc2c([nH]c3ccccc23)C1c1cccc(C)c1 (stereo unspecified)	nt	44%[activator]	nt	-9%	-2%	-5%	?	5%
